Source: PubChem BioAssay (National Center for Advancing Translational Sciences (NCATS))
HPGD block = blocks human HPGD enzyme activity | P15428 | Potency, µM, for inactives: at the top dose activity change, negative = inhibition, most hits filed as inhibitors | purified HPGD, NADH fluorescence kinetic, PGE2 substrate | actives 4.3% (n = 150,000); active = well fitted inhibition curve with a large enough effect (not every such curve was filed as active); inconclusive = small, poorly fitted or top-dose-only effect, or another doubt; inactive = no such curve, though single readings can be large or run the other way;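 note: top concentration of the series not given in the record; plate controls included wells without enzyme; inactives centre near -10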
Target sequence (P15428 whole entry, looked up): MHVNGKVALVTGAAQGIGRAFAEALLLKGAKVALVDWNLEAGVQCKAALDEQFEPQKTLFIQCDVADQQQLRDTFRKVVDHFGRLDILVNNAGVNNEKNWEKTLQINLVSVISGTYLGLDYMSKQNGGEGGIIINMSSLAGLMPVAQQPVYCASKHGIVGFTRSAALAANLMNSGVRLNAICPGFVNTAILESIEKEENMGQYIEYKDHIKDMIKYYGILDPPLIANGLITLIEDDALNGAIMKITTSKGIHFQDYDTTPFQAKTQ
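20 nM HPGD preincubated 15 min at room temperature with compound in 50 mM Tris-HCl pH 8, 0.01% Tween 20. Started with 1 mM NAD+ and 30 uM prostaglandin E2; NADH fluorescence (360/450 nm) read 5 times over 30-s intervals, last minus first.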
An asterisk follows results filed as active; u = inconclusive; & = joins results of further samples; [ ] = dose if it differs, or a comment. % is set by controls: 0 for no effect and ±100 for the full control effect; potency is the fitted concentration of half-maximal effect. A portion of the library, so the mix of outcomes need not match the whole.

The first five entries, ahead of the listing:
SMILES | HPGD block
Cc1ccc(S(=O)(=O)NCCSc2nnnn2-c2cc(C)ccc2C)cc1 | -5%
Cc1[nH]c2ccccc2c1/C=N/NC(=O)CNC(=O)c1ccc2c(c1)OCO2 | -3%
Cc1cccc2sc(NC(=O)c3ccc(NS(=O)(=O)c4cccs4)cc3)nc12 | u
CC(C)[C@H](NC(=O)c1cccc(S(=O)(=O)N2CCOCC2)c1)C(=O)Nc1nc2ccccc2s1 | -7%
c1ccc(CCc2ccccc2-c2nc(-c3cccnc3)no2)cc1 | -30%

Results, from the first entry:
SMILES | HPGD block
Cc1ccc(S(=O)(=O)NCCSc2nnnn2-c2cc(C)ccc2C)cc1 | -5%
Cc1[nH]c2ccccc2c1/C=N/NC(=O)CNC(=O)c1ccc2c(c1)OCO2 | -3%
Cc1cccc2sc(NC(=O)c3ccc(NS(=O)(=O)c4cccs4)cc3)nc12 | u
CC(C)[C@H](NC(=O)c1cccc(S(=O)(=O)N2CCOCC2)c1)C(=O)Nc1nc2ccccc2s1 | -7%
c1ccc(CCc2ccccc2-c2nc(-c3cccnc3)no2)cc1 | -30%
CCOc1ccc(OCC)c(NC(=O)C2CCN(S(=O)(=O)c3cnc[nH]3)CC2)c1 | -5%
Cc1ccccc1C(=O)NCC(=O)NNC(=S)NC(=O)c1ccccc1C | 25µM*
O=C(NC1CCCCC1)C(c1ccncc1)N(Cc1ccc2c(c1)OCO2)C(=O)c1cnsn1 (stereo unspecified) | -2%
COc1ccccc1NC(=S)N1CCCC1 | 2%
Cc1cc(C)cc(NC(=O)CN2C(=O)NC(C)(c3ccccc3)C2=O)c1 (stereo unspecified) | -1%
C/C(=N/NC(=O)c1ccco1)c1cccc(NC(=O)c2ccc(C)o2)c1 | -12%
O=C(OCC(=O)N1CCN(c2ccccc2)CC1)C1=COCCO1 | -2%
O=C(CCCN1C(=O)c2cccc3cccc(c23)C1=O)N1CCN(c2ccccn2)CC1 | -4%
Cc1cccc2sc(NC(=O)Cn3cccc3)nc12 | -14%
CCCCNS(=O)(=O)c1ccc(OC)c2ncccc12 | u
CCCCNC(=O)/C(C#N)=c1\s/c(=C\c2ccccc2OC(F)F)c(=O)n1CCCOC | -23%
CN1CCN(CC(=O)Nc2nc(-c3ccccc3)cs2)CC1 | -5%
CCOC(=O)c1sc(NC(=O)c2ccncc2)nc1C | -16%
CCCNS(=O)(=O)c1ccc(OCC(=O)Nc2ccccc2F)cc1 | 0%
COc1ccc(OC)c(C(=O)c2coc3ccc(O)cc23)c1 | 32µM*
CN1CCN(CCOC2Cc3ccccc3Sc3ccc(Cl)cc32)CC1 (stereo unspecified) | -10%
Cc1ncsc1C(=O)N1N=C2/C(=C/c3ccc(N4CCOCC4)cc3)CCCC2C1c1ccc(N2CCOCC2)cc1 (stereo unspecified) | -9%
CCOc1ccccc1Oc1coc2cc(OC(=O)c3ccco3)ccc2c1=O | -20%
NC(=O)CC(NC(=S)NCc1ccccc1)C(=O)O (stereo unspecified) | -13%
COc1ccc(Cl)cc1NC(=O)NC(C)c1ccncc1 (stereo unspecified) | -4%
COc1ccc(CSCC(=O)N/N=C/c2ccccc2OCc2ccccc2)cc1 | -17%
CCOC(=O)c1cc(-c2ccccc2)n(CC(=O)Nc2ccc(OC)c(OC)c2)c1C | -5%
CCCc1nc(SCc2ccccn2)c2c(=O)n(C)c(=O)n(C)c2n1 | -4%
CCS(=O)(=O)N1CCN(C(C)CCc2ccccc2)CC1 (stereo unspecified) | 8%
O=C(Nc1cccc(-c2cnc3ccccc3n2)c1)c1ccc(Cl)cc1 | -7%

An excerpt from above in order of formula weight, high to low:
SMILES | HPGD block
CCOC(=O)c1cc(-c2ccccc2)n(CC(=O)Nc2ccc(OC)c(OC)c2)c1C | -5%
CN1CCN(CCOC2Cc3ccccc3Sc3ccc(Cl)cc32)CC1 (stereo unspecified) | -10%
O=C(Nc1cccc(-c2cnc3ccccc3n2)c1)c1ccc(Cl)cc1 | -7%
CCS(=O)(=O)N1CCN(C(C)CCc2ccccc2)CC1 (stereo unspecified) | 8%
NC(=O)CC(NC(=S)NCc1ccccc1)C(=O)O (stereo unspecified) | -13%

Further records:
SMILES | HPGD block
CCCOC(=O)CCCC[C@H]1SC[C@@H](NC(=O)OC)[C@H]1NC(=O)OC | 3%
Oc1ccccc1N1CCN(c2ncccn2)CC1 | -20%
COc1cc2c(C(=O)N3CCN(c4ccccc4)CC3)c(C)oc2cc1Br | -7%
COc1cccc(/C=C(\C#N)C(=O)NC2CCS(=O)(=O)C2)c1 (stereo unspecified) | -15%
Cc1nc(CSc2ccc(Cl)cc2)cc(N2CCOCC2)n1 | -5%
COC(=O)c1[nH]c(C)c(/C(O)=C2\C(=O)C(=O)N(CCN3CCOCC3)C2c2cccnc2)c1C (stereo unspecified) | -13%
COc1ccc(-c2nn(-c3ccccc3)cc2/C=N/N2C(=O)CSC2=S)cc1 | -17%
COCC(=O)Nc1ccc(C(N)=O)cc1 | -5%
CC(=O)c1c(C)nc(-c2ccc3c(c2)OCO3)n1O | -17%
CC1=CC(C)(C)NC(=S)N1c1cccc2ccccc12 | 1%
Clc1ccc(N2CCN(Cc3c[nH]c4ncccc34)CC2)cc1 | -3%&-6%
O=C(NCc1cccnc1)c1cc(Cl)ccc1[N+](=O)[O-] | -5%
COc1ccc(N(C(=O)Cn2cnc3ccccc32)C(C(=O)NC2CCCCC2)c2ccccc2)cc1 (stereo unspecified) | -7%
COCCN1CCN(c2c3c(nc4cc(-c5cccc(F)c5)nn24)CCC3)CC1 | -15%
Cc1cc(C)n(-c2nc(C)nc(N)n2)n1 | -6%
Cc1ccc2c(c1)c(N=NC(N)=S)c(O)n2Cc1ccccc1 | -6%
Cn1cc(C(=O)c2ccc(Cl)cc2Cl)cc1C(=O)N/N=C(\N)COc1ccc(Cl)cc1Cl | -19%
CC1=C(C)CC(C(=O)Nc2cccc(Cl)c2)C(C(=O)O)C1 (stereo unspecified) | u
COc1ccc(NC(=O)CN2CCN(S(=O)(=O)c3ccc(Cl)cc3)CC2)cc1Cl | -17%
O=S(=O)(Nc1ccc(F)cc1)c1ccc(NC(=S)Nc2ccccc2)cc1 | -8%
CC1CN(c2nc3ccccc3nc2C(C#N)C(=O)OC2CCCCC2)CC(C)O1 (stereo unspecified) | -25%
COc1ccc(O[C@H]2C=C[C@@H](c3ccccc3)O[C@@H]2COC(=O)CC/C(C)=N/O[C@@H](C)c2cn([C@H](CO)Cc3ccccc3)nn2)cc1 | -15%
O=C(/C=C/Nc1cccc(C(F)(F)F)c1)C(F)(F)F | -19%
CCC(C)NS(=O)(=O)c1ccc(OCC(=O)NCC2CCCO2)cc1 (stereo unspecified) | -1%
C=C(C)CNC(=S)N1CCNC(=O)C1CC(=O)OC (stereo unspecified) | -5%
COc1ccc(NC(=O)COC(=O)c2ccc(OCc3c(C)noc3C)cc2)cc1OC | -8%
O=C(NC1CCCCC1)N(CCN1CCCC1)Cc1cc2cc3c(cc2[nH]c1=O)OCCO3 | u
Nc1nc2c(nc(Br)n2C2O[C@H]3COP(=O)(O)O[C@@H]3C2O)c(=O)[nH]1 (stereo partly specified) | -6%
CCC(C)C(=O)Nc1ccc(OC)cc1[N+](=O)[O-] (stereo unspecified) | -2%
O=C(NCCCN1CCCC1=O)c1nnc(Cc2c(F)cccc2Cl)o1 | -28%
Cc1ccc(Cn2cnc3ccccc32)cc1 | -5%
CCOCCCNc1nc2c(C)cccn2c(=O)c1/C=C1\SC(=S)N(CC(C)C)C1=O | -7%
O=C(NCc1ccco1)c1ccccc1NC(=O)C1CC(=O)N(c2ccc(Cl)cc2)C1 (stereo unspecified) | -18%
Cc1nc(NCc2ccco2)c2c(C)c(C)sc2n1 | -10%
CC(C)=CC(=O)N1CCCc2ccccc21 | -22%
Cc1nnc(C)c2c(C)n(Cc3ccc4c(c3)OCO4)c(C)c12 | -17%
O=C(CCN1CCCCC1)Nc1ccc(Br)cc1 | -8%
Cc1ccc(C)c(NC(=O)C(OC(=O)c2ccc(C)s2)c2ccccc2)c1 (stereo unspecified) | -8%
Cc1nn(-c2ccccc2)cc1/C=N/O | -1%
O=C(Nc1ccccc1N1CCCC1)c1cccc(-c2cc3ccccc3oc2=O)c1 | -8%
CC(=O)N1CCN(c2ccc(NCc3ccc(C)s3)cc2)CC1 | -15%
O=C(OCCO)c1cc(Cl)c(C(=O)OCCO)cc1Cl | -13%
COc1ccc(-n2nnc3c(=O)n(C/C=C/c4ccccc4)cnc32)cc1 | u
COc1ccc(CNC(=O)C(OC(C)=O)c2ccccn2)cc1 (stereo unspecified) | -12%
CN1CCN(S(=O)(=O)c2ccc(NC(=O)C3CCCO3)cc2)CC1 (stereo unspecified) | 3%
O=C(COc1ccc(S(=O)(=O)N2CCc3ccccc32)cc1Cl)NCc1ccccn1 | -5%
O=C(NCCN1C(=O)C2C3C=CC(C3)C2C1=O)Nc1ccccc1O (stereo unspecified) | -14%
Cc1ccc(-n2c(C)cc(C(=O)OCC(=O)N(C)C3CCS(=O)(=O)C3)c2C)cc1 (stereo unspecified) | -13%
Cc1onc(-c2ccccc2)c1C(N)=O | -18%
O=C(CCC(=O)N1CCN(S(=O)(=O)c2ccc(Cl)cc2)CC1)NC1CCCc2ccccc21 (stereo unspecified) | -2%

Two entries picked at random from the list so far, as already listed:
SMILES | HPGD block
CN1CCN(S(=O)(=O)c2ccc(NC(=O)C3CCCO3)cc2)CC1 (stereo unspecified) | 3%
COc1ccc(-n2nnc3c(=O)n(C/C=C/c4ccccc4)cnc32)cc1 | u

Following part.
SMILES | HPGD block
Cc1ccc(S(=O)(=O)N2CCOCC(=O)NCCOCCNC(=O)COCC2)cc1 | -5%
O=C(Oc1ccc(Cl)c2cccnc12)N1CCCCC1 | -28%
Clc1ccc(-c2nnnn2-c2ccc(Cl)c(Cl)c2)cc1Cl | -5%
O=C(/C=C/c1cccs1)NCc1cccnc1 | -9%
CC(C)C(c1nnnn1Cc1ccc(F)cc1)N1CCN(Cc2ccc3c(c2)OCO3)CC1 (stereo unspecified) | -13%
CCOc1c(C)cc2[nH]c(CCC(=O)O)nc2c1C | -2%
C=CCn1nnc2sc3c(c2c1=O)CCC(C)C3 (stereo unspecified) | -19%
CNc1ccccc1C(=O)OCC(=O)c1ccccc1 | 80%[activator]
CCCCCCOC(=O)c1ccc(OC(=O)c2cccnc2)cc1 | -17%
CC(=O)c1cc(C#N)c(SCC(=O)C(C)(C)C)nc1C | -12%
O=C(COC(=O)c1cc(=O)[nH]c2ccccc12)NC(=O)NC1CCCCC1 | -11%
CCOC(=O)Cc1csc(NC(=O)c2ccc(S(=O)(=O)N3CCCC3)cc2)n1 | -13%
Cc1nc2ccc(S(=O)(=O)N(C)CC(=O)N3CCc4ccccc4C3)cc2s1 | -19%
Cc1ccc2c(CSc3nnc(C4CC4)n3N)cc(=O)oc2c1C | u
O=C(O)CCN1C(=O)CC(N2C(=O)/C(=C/c3ccc(Cl)cc3)SC2=S)C1=O (stereo unspecified) | -23%
Cc1ccc(C(=O)Nc2nncs2)cc1S(=O)(=O)N1CCOCC1 | -16%
O=C(CN1CCN(c2ccccc2Cl)CC1)NC1CCCc2ccccc21 (stereo unspecified) | -3%
COC(=O)C(C)Sc1nc2c(c(=O)[nH]c(=O)n2C)n1CCCc1ccccc1 (stereo unspecified) | -30%
CC(C)(C)C(=O)NNC(=O)CCCOc1ccc(Cl)cc1Cl | -5%
COc1cc(-c2nnc(CSc3nnc4nc(C)cc(C)n34)o2)cc(OC)c1OC | -21%
Cc1ccccc1C(=O)NC(=S)Nc1ccc(S(=O)(=O)N(C)c2ccccc2)cc1 | -8%
O=c1cc(CO)oc(CN2CCN(Cc3ccccc3)CC2)c1O | -1%
COc1cc(S(=O)(=O)NCc2ccccn2)c(OC)cc1Cl | -15%
Cc1ccccc1Cn1cnc2c(NS(C)(=O)=O)c(C)c(C)cc21 | 2%
COc1ccc(C(=O)N2CCN(c3nnnn3-c3ccccc3)CC2)cc1OC | -1%
C=CCOc1ccc(Cl)cc1CNCCCN1CCOCC1 | -5%
COc1ccc(Nc2cc(C)nc(N3CCOCC3)n2)cc1 | -11%
CCOC(=O)c1cc(-c2ccccc2)n(CCC(=O)O)c1C | -12%
COc1ccc(Cl)cc1NC(=O)CC(C)c1ccccc1 (stereo unspecified) | -15%
COc1ccc(N2C(=O)CCC(C(=O)N3CCCCC3)C2c2ccc(OC)c(OC)c2)cc1 (stereo unspecified) | -5%
COc1ccccc1S(=O)(=O)Nc1ccc(-c2nnc3n2CCCCC3)cc1 | 32µM*
COc1ccc(-n2c(=O)cc(N3CCN(Cc4ccccc4)CC3)[nH]c2=O)cc1 | -13%
O=C(Nc1ccc2c(c1)OCCO2)C1CCCN(S(=O)(=O)c2cccs2)C1 (stereo unspecified) | -5%
COC(=O)c1ccc(/C=N/NS(=O)(=O)c2cc(C)ccc2C)cc1 | -10%
CCOc1nc(OCC)nc(-n2cc(-c3ccccc3)nn2)n1 | -12%
Cc1c(/C=N/N2C(=O)C3C4C=CC(C4)C3C2=O)c2ccccc2n1C (stereo unspecified) | -2%
O=C(COc1ccc(C(=O)c2ccccc2)cc1)NC1CCCCCC1 | -8%
